# Bioassay records (PubChem BioAssay)
# CBX7 AlphaScr: blocks human CBX7 binding to H3K27me3 peptide; AlphaScreen His6-CBX7 / biotin-H3K27me3 peptide binding; active compounds read low; normalised signal (fraction of DMSO) (test concentration not listed); AID 1224903; O95931; 1.1% of 66,000 active; in the data active = normalised signal below about 0.5;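 also: 100 nL library stock added to about 20 µL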
# Target sequence (O95931 whole entry, looked up): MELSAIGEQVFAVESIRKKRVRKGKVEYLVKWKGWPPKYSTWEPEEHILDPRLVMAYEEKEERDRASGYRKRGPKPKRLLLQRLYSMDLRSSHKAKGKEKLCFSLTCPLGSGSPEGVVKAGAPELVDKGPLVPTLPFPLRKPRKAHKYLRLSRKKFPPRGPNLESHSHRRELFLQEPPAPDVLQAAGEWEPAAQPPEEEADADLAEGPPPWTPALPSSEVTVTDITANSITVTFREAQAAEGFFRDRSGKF
# CBX7 AlphaScr z-score: second read-out of CBX7 AlphaScr, no call of its own (marks repeat the call); z-score; measured here: z-score of CBX7 signal; some inactives read as strong as hits; reference of the scale not given here;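 same signal on another scale; lower means less binding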
# * hit, by the source's call; & = joins results of further samples.
# Start of the data: the first 2 entries, to show the layout:
canonical_smiles	CBX7 AlphaScr z-score	CBX7 AlphaScr
Cc1nn(C)c(C)c1S(=O)(=O)N(CC(=O)NCc1ccccc1)c1ccc(C(C)C)cc1	2.1	1.3
COCCNC(=O)CCN1N=C(c2ccc(OC)cc2)CCC1=O	1.9	1.1

# Results, previewed entries included:
canonical_smiles	CBX7 AlphaScr z-score	CBX7 AlphaScr
Cc1nn(C)c(C)c1S(=O)(=O)N(CC(=O)NCc1ccccc1)c1ccc(C(C)C)cc1	2.1	1.3
COCCNC(=O)CCN1N=C(c2ccc(OC)cc2)CCC1=O	1.9	1.1
O=C1CN(C(=O)c2ccc(Br)cc2)C(c2ccccc2)c2cc(F)ccc2N1 (stereo not drawn)	-1.2	0.96
CCCCCCCCNC(=O)Cn1cnc2scc(-c3ccccc3)c2c1=O	1.4	1
COc1ccc(OC)c(CN2CCN(Cc3cccnc3)CC2)c1	0.55	1
CCN1CCN(Cc2ccc(NC(=O)Nc3ccccc3Cl)cc2)CC1	0.11	1.1
COc1ccc(Cc2nc3c4c5c(sc4ncn3n2)CCCC5)cc1	1.2	1.1
NS(=O)(=O)c1ccc(CCNC(=O)C2CCN(S(=O)(=O)c3cnc[nH]3)CC2)cc1	-2	0.88
CCN(CC)CCNC(=O)c1ccc2nc(C)c(C)nc2c1	0.36	1
Cc1nc(NCc2cccs2)c2c(C)c(C)sc2n1	-0.71	0.98
CCOc1ccccc1CNC(=O)C12CC3CC(C1)CC(n1cnc(Br)n1)(C3)C2	3.2	1.2
COc1ccc2c(C)nc(Nc3nc4ccccc4c(=O)[nH]3)nc2c1	0.38	1.1
Cc1ccc(NC(=O)c2cc(S(=O)(=O)N3CCCCC3)ccc2F)cc1C	-1.8	0.76
N#Cc1nc(COc2ccccc2Cl)oc1N1CCCCCC1	-1.9	0.7
CCCSCCCNC(=O)c1csc2c1CCCCC2	0.99	1
C=CCN1C(=O)N(c2ccccc2)C(=O)C1CC(=O)Nc1ccc(Cl)cc1 (stereo not drawn)	0.31	1
Cc1ccc(-c2nc(C(=O)Nc3ccc(F)cc3C)c(C)o2)cc1	-0.54	0.96
Cc1ccccc1Nc1c(-c2c[nH]c3ccccc23)nc2ccc(Cl)cn12	-4.8	0.82
Cc1ccc2oc(-c3ccc(Cl)c(NC(=O)c4ccc(F)cc4)c3)nc2c1	0.28	1
O=C(Nc1ccc(F)cc1)c1c[nH]n2c(=O)cc(C3CCNCC3)nc12	0.23	1
CC1CCCC(C)N1C(=O)c1cc2nc(-c3ccc(Cl)cc3)cc(C(F)(F)F)n2n1 (stereo not drawn)	0.48	1
Cc1ccc2nc(NS(=O)(=O)c3ccc(Cl)cc3)c(Nc3cccc(C(=O)O)c3)nc2c1	-0.52	0.96
Cc1ccc(CNC(=O)CCc2c(C)nc3cc(-c4ccc(Cl)cc4)nn3c2C)cc1	1.3	1.1
CCSc1nnc(-c2cc(Br)ccc2NC(C)=O)c(=O)[nH]1	0.46	1
COc1ccc(C(O)=C2NS(=O)(=O)c3ccccc3C2=O)cc1OC	-2	0.95
O=c1c(Oc2ccccc2Br)coc2cc(OCc3ccccc3)ccc12	1	1
O=C(Nc1cccc(Cl)c1)C1CCCN1S(=O)(=O)c1cccc2cccnc12 (stereo not drawn)	2.9	1.1
Nc1nc(COc2cccc3cccnc23)nc(Nc2ccccc2)n1	-1.6	0.93
COc1ccc(NC(=O)Cn2c(SCc3cccc(F)c3)nc3ccncc32)cc1OC	0.69	1
COc1cc(NC(=O)c2ccc(CNc3c(N4CCCCC4)c(=O)c3=O)cc2)cc(OC)c1	-0.22	0.9
O=C(Nc1nc(-c2ccc(Br)cc2)cs1)c1cccnc1	-0.077&0.54	1&1
CC(C)NC(=O)CN1C(=O)COc2ccc(S(=O)(=O)N3CCOCC3)cc21	2.3	1
Cc1ccc(CNc2oc(-c3ccc(C)cc3)nc2C#N)cc1	-1.3	0.96
Cc1cccc(-c2cc(C(=O)NCc3ccccc3)c3ccccc3n2)c1	0.2	1
CCOc1ccc(N2C(=O)CC(N3CCN(C(=O)CN4CCCC4)CC3)C2=O)cc1 (stereo not drawn)	-2.3	0.85
O=C1CN(C(=O)c2ccc(Cl)cc2)C(c2ccc(F)cc2)c2cc(F)ccc2N1 (stereo not drawn)	-2.4	0.74
O=C(Nc1cnn(Cc2ccc(Cl)cc2Cl)c1)c1cc(-c2cccc(O)c2)on1	-0.18	0.99
CCN(CC)CCCNC(=O)CSc1nc2nc(C)c(Cc3ccccc3C)c(C)n2n1	-0.13	0.93
C#CCOc1ccc(-c2nnc(Nc3ccc(C)cc3)c3ccccc23)cc1	-0.35	0.93
CCc1ccccc1NC(=O)C(=O)NCCc1c[nH]c2ccccc12	2.3	1.2

# Reprinted at random: 2 compounds from above, in no set order.
canonical_smiles	CBX7 AlphaScr z-score	CBX7 AlphaScr
Cc1ccc(CNC(=O)CCc2c(C)nc3cc(-c4ccc(Cl)cc4)nn3c2C)cc1	1.3	1.1
CC1CCCC(C)N1C(=O)c1cc2nc(-c3ccc(Cl)cc3)cc(C(F)(F)F)n2n1 (stereo not drawn)	0.48	1

# Next section.
canonical_smiles	CBX7 AlphaScr z-score	CBX7 AlphaScr
Cc1cc(-c2ccccc2)n(-c2cccc3cccnc23)n1	3.8	1.2
Cc1cc(C)cc(NC(=O)C2CCN(S(=O)(=O)c3ccc4c(c3)CCC(=O)N4)CC2)c1	0.95	1
CC1(C)CC(=O)C2=C(C1)N(c1ccccc1)C(=O)CC2c1cccs1 (stereo not drawn)	1	1.1
CCN1CCN(c2cc(C)c3cc(NC(=O)CCC(=O)N4CCN(C)CC4)ccc3n2)CC1	-0.98	0.96
Cn1nc(-c2ccccc2F)c2cc(C(=O)Nc3cccnc3)sc21	-0.0035	1
CCCC1=Nc2cc(C(=O)NCc3ccc4c(c3)OCO4)ccc2Sc2ccccc21	-1.9	0.87
COCCN1C(=O)CCC2(CCC(=O)NC2)C1=O (stereo not drawn)	0.74	1
Cc1ccc(Cl)cc1N1CCN(C(=O)CCN2C(=O)COc3ccccc32)CC1	-0.86	0.93
Cc1ccc(Cl)cc1NC(=O)CNC(=O)c1cc2ccccc2o1	0.26	1
Cc1ccc(-c2nnc(Nc3cccc(O)c3)c3ccccc23)cc1S(=O)(=O)N1CCN(C)CC1	-0.39	0.65
O=C(NCc1cccs1)C1=CCN(S(=O)(=O)c2ccc(F)cc2)CC1	1.9	1.1
CCOC(=O)c1c(NC(C)=O)sc(-c2ccccc2)c1Cc1ccccc1	1.9	1.1
O=C(Nc1nnc(COc2ccc(Cl)cc2)s1)C1CCCCC1	0.97	1.1
CCN(CC)CCCNC(=O)CCC(=O)Nc1ccc2nc(N3CCOCC3)cc(C)c2c1	0.11	1.1
COc1ccc(-c2c(C)nn3c(NCCN4CCOCC4)cc(C)nc23)cc1OC	-1.3	0.95
O=C(Cc1ccccc1)Nc1nnc(COc2ccc(Cl)cc2Cl)s1	-0.67	0.97
Cc1cc(=O)oc2c(CN3CCCC3)c(O)ccc12	0.51	1.1
Clc1ccc(-n2ncc3c(NC(c4ccccc4)c4ccccc4)ncnc32)cc1	-0.19	0.95
Cc1cc(C)cc(NC(=O)Cn2c(SCc3ccc(F)cc3)nc3ccncc32)c1	2.1	1
CCCS(=O)(=O)N1CCCC(C(=O)NCc2ccc(OCC)c(OC)c2)C1 (stereo not drawn)	0.92	1
CCN1CCN(CCCNC2CC(=O)N(c3ccc(F)cc3)C2=O)CC1 (stereo not drawn)	-1.2	0.92
Cc1[nH]nc(-c2ccccc2)c1-c1nc2ccccc2[nH]1	-0.59	0.98
CC1CCCC(NC(=O)C2(C)CCC(=O)N2Cc2ccccc2Cl)C1C (stereo not drawn)	-2.3	0.8
CCOC(=O)c1cnc2ccc(OCC)cc2c1NCCc1ccccc1	11	1.4
CC1CCN(c2nc3ccc(C(=O)NCCCN(Cc4ccccc4)C(C)C)cc3s2)CC1	2.4	1.3
Cc1cc(C)n2c(Nc3ccc4c(c3)OCCO4)c(-c3cccs3)nc2n1	-0.14	0.86
Cc1ccc2nc(N3CCN(C(=O)CC4(CC(=O)O)CCCC4)CC3)nc(-c3ccccc3)c2c1	1.7	1.1
CCc1ccc(CNC(=O)C2CC(=O)N(CCc3ccccc3)C2)cc1 (stereo not drawn)	1.2	1
COc1ccc(CNC(=O)c2ccc3c(c2)NC(=O)C2CCCN32)cc1 (stereo not drawn)	-0.4	0.91
Cc1ccc(CNC(=O)Cn2ncc3c2-c2cc(C)ccc2OC3)cc1	0.66	1
Cc1ccc2c(Cl)c(-c3nnc(-c4ccc(-c5ccccc5)cc4)o3)sc2c1	0.82	1
COc1cc2ccccc2cc1C(=O)Nc1nc(-c2ccc(F)cc2)cs1	-0.46	0.96
CCc1ccc(NC(=O)Cn2cc(S(=O)(=O)c3ccccc3)c(=O)c3cc(CC)ccc32)cc1	-4.2	0.87
Cc1cccc(N2CCN(CCN3C(=O)Cn4cccc4C3C(=O)NC3CCC(C)CC3)CC2)c1C (stereo not drawn)	-2.4	0.88
O=C(NCCCN1CCOCC1)c1nn2c(c1Br)NC(c1cccs1)CC2C(F)(F)F (stereo not drawn)	2.5	1.3
COc1cc(-c2nc3sc4c(c3c(=O)[nH]2)CCCC4)ccc1OCc1ccccc1F	1.8	1.1
COc1ccc(Cn2cc(S(=O)(=O)c3ccccc3)c(=O)c3cc(OC)c(OC)cc32)cc1	0.24	1
O=S(=O)(c1ccc(Cl)cc1)c1nc(-c2cccc(Br)c2)oc1N1CCOCC1	-12	0.67
O=C(Nc1ccc(F)cc1)c1cc(-c2cccs2)nc2ccccc12	0.68	1
COc1cccc(CNC(=O)C2CCCN(S(=O)(=O)c3cccc4cccnc34)C2)c1 (stereo not drawn)	-0.15	0.89
COC(=O)c1ccccc1NC(=O)Nc1cccs1	-0.3	0.99
O=C(CSc1nnc(-c2ccccc2)o1)Nc1nccs1	0.8	1.3
CCOc1cc(C2NC(=O)c3c(sc4c3CCN(C)C4)N2)ccc1OC(=O)c1ccc(F)cc1 (stereo not drawn)	0.62	1
COc1ccccc1CNC(=O)C(C)C1Sc2ccccc2N(Cc2ccccc2C)C1=O (stereo not drawn)	-1.8	0.89
Cc1ccccc1CSc1nnc(Cc2cc(=O)[nH]c(=O)[nH]2)n1-c1ccccc1	1.2	1
Cc1c(Cl)c(C(=O)Nc2nc3ccccc3n2CCN2CCCCC2)nn1C	0.058	1
Cc1ccc(-c2nc(C(=O)NCCN3CCCCC3C)c(C)o2)cc1 (stereo not drawn)	-0.21	0.99
CCn1c(SCC(=O)Nc2ccc3c(c2)OCO3)nnc1-c1c[nH]c2ccccc12	0.77	1.1
CCCCSc1oc(-c2ccccc2)nc1S(=O)(=O)c1ccc(C)cc1	-0.64	0.95
CCOC(=O)c1cnc2c(C)cc(Cl)cc2c1NC(C)c1ccccc1 (stereo not drawn)	0.098	1
Cc1ccc(Nc2cc(C(=O)N3CCCC3)c3ccccc3n2)cc1C	0.44	1
CCN(CC)c1ccc(NC(=O)C2CCCN(S(=O)(=O)c3cnc[nH]3)C2)c(C)c1 (stereo not drawn)	-3.1	0.87
COc1cccc(C(=O)NC(C)C(c2cccs2)N2CCN(C)CC2)c1 (stereo not drawn)	-0.27	0.99
Cc1cc(C)cc(NC(=O)CSc2nnc(Cc3cc(=O)[nH]c(=O)[nH]3)n2-c2ccccc2)c1	0.22	1
Cc1nc(N2CCN(c3ccc(Cl)c(Cl)c3)CC2)c2c3c(sc2n1)CCC3	-1.4	0.91
Cc1ccc(-c2noc(CN(C(C)C)S(=O)(=O)c3ccc(Cl)cc3)n2)cc1	0.79	1.1
CC(C)c1nc2ccc(-c3nc4ccccc4o3)cc2[nH]1	-1.1	0.92
CCOc1ccc2nc(N3CCC(C(=O)N4CCN(c5ccccc5)CC4)CC3)sc2c1	-1.2	0.95
O=C(Cn1c(NCCCO)nc2ccccc21)c1ccc(Br)cc1	-0.7	0.94
CC(=O)N1CCc2cc(S(=O)(=O)NC(CC(C)C)C(=O)NCCc3ccccc3)ccc21 (stereo not drawn)	-0.92	0.95

# Six entries already listed, sorted by their value in CBX7 AlphaScr z-score, ascending.
molecule,CBX7 AlphaScr z-score
O=C1CN(C(=O)c2ccc(Cl)cc2)C(c2ccc(F)cc2)c2cc(F)ccc2N1 (stereo not drawn),-2.4
N#Cc1nc(COc2ccccc2Cl)oc1N1CCCCCC1,-1.9
COc1ccccc1CNC(=O)C(C)C1Sc2ccccc2N(Cc2ccccc2C)C1=O (stereo not drawn),-1.8
CCCCSc1oc(-c2ccccc2)nc1S(=O)(=O)c1ccc(C)cc1,-0.64
Cc1ccc(Nc2cc(C(=O)N3CCCC3)c3ccccc3n2)cc1C,0.44
CC(C)NC(=O)CN1C(=O)COc2ccc(S(=O)(=O)N3CCOCC3)cc21,2.3

# (further entries)
canonical_smiles	CBX7 AlphaScr z-score	CBX7 AlphaScr
COc1cccc(-n2c(SCC(=O)Nc3ccc4c(c3)OCCO4)nnc2-c2c[nH]c3ccccc23)c1	-0.14	0.98
Cc1cc(C)cc(CC(Cc2nc3ccccc3[nH]2)c2nc3ccccc3[nH]2)c1 (stereo not drawn)	1.1	1.1
Cc1cccc(OCCCn2c(/C=C/c3ccccc3)nc3ccccc32)c1	9.3	1.4
CC(C)OC(=O)c1cccc(C(=O)Nc2cccc(C(F)(F)F)c2)n1	1.7	1.1
O=C(c1ccccc1F)N1CCNc2ccccc2C1	0.18	1
COc1cc2c(C(=O)N3CCN(c4ccccn4)CC3)cn(CC(C)C)c(=O)c2cc1OC	0.85	1.1
CCOC(=O)c1cc(-c2ccc(OC)cc2)n(CCC(=O)NCc2ccccc2OC)c1C	-2	0.81
Cc1ccc(C2CC(=O)Nc3cc4c(cc32)OCO4)cc1Br (stereo not drawn)	-0.26	0.81
COc1ccc(-c2cc(C(=O)NCc3cccnc3)no2)cc1	-0.39	0.98

# These rows are one share of the data; rates above refer to the full screens.
